Rce1 inhib = yeast Rce1p protease inhibitors, primary screen, biochemical, fluorescence, cell-free homogeneous; CAAX prenyl protease 2 (Saccharomyces cerevisiae (strain ATCC 204508 / S288c)), Q03530; yeast membranes, quenched prenylated peptide cleavage fluorescence; calls only; 0.27% of 290,000 active; AID 2563, 2010;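 active = fall in fluorescence gain of 50% or more versus controls, with final raw signal at or below 3038400; inconclusive = same 50% fall but final raw signal above 3038400; inactive = fall in fluorescence gain under 50%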;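 note: plate controls were neutral control wells for no effect and wells lacking membranes for full effect; tested at 10 µM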
Target sequence (Q03530 whole entry, looked up): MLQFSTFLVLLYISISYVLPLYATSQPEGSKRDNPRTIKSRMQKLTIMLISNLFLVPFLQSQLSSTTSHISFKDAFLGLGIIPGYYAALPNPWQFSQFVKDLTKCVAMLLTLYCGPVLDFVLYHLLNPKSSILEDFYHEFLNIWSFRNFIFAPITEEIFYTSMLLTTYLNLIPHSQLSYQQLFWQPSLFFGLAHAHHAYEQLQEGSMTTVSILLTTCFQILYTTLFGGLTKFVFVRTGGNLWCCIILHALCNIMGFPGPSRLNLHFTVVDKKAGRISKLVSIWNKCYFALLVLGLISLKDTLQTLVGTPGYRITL
MT1-MMP act inh = blockers of MT1-MMP proenzyme processing, primary screen, HT1080 RFP-PRO-GFP cells, GFP/RFP fluorescence. GFP/RFP ratio fluorescence, overnight; percent of plate control window, DMSO zero. GFP/RFP ratio change, % at 20 µM. 0.061% of 360,000 active. AID 651647, 2012;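 active = GFP/RFP ratio change of at least 30% with cell ATP level not reduced by more than half and red fluorescence within 50% of control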; note: strong numbers were not always called active
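Read-out: GFP/RFP fluorescence ratio; Test system: RFP-PRO-GFP reporter HT1080 cells; Compound dosing: single-point 20 µM compound, 1% DMSO; Times: overnight compound exposure at 37 °C.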
PABP polyA inh = PABP poly(A) RNA binding inhibitors, primary screen, biochemical, fluorescence polarization, uHTS; Polyadenylate-binding protein 1 (Homo sapiens), P11940; AID 2014, 2009; 1% of 290,000 active; inhibition, % at 35 µM;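 active = 50% or more with normal probe brightness, or confirmed in later tests; inconclusive = above 50% with abnormal brightness, or retests that disagree; inactive = below 50% or failed in later tests; about a fifth of its hits are not listed in these tables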;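 note: calls also rest on retests at 20 µM and on dose response follow-up; controls were probe without protein and protein plus probe with vehicle; some compounds called inactive have numbers as strong as hits; many hits fall short of the cut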
UUG fidelity = modulators of yeast start codon fidelity, primary screen, whole organism, S. cerevisiae, single point, plate reader | S. cerevisiae UUG-firefly luciferase reporter, luminescence/redox ratio | 0.13% of 350,000 active | activity score, % at 18.7 µM | AID 602363, 2012;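 active = replicate mean at a twofold rise or more, about +100% in these data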;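 note: firefly luciferase made from a UUG start codon reports start codon fidelity; reporter light over untreated wells divided by growth signal over untreated wells; some hits fall short of that in this replicate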
HIV Env fusion = inhibitors of HIV-1 Env-driven cell-cell fusion, primary screen, HeLa-JRFL effector, CEM21 target cells, luciferase. inhibition, % at 12.3 µM. 1.1% of 360,000 active;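 active = mean replicate inhibition score of at least 50 and every replicate individually at or above 50; inconclusive = only one of the two criteria met; inactive = mean below 50 and not all replicates reaching 50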;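 note: 0% = plate neutral controls and 100% = maraviroc near 300 nM; one replicate is shown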
CSC inhib = cancer stem cell viability inhibitors, primary screen, luminescence; cancer stem cell-like cells viability; inhibition, % at 7.5 µM; 1.1% of 300,000 active;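 active = mean at 75% or more and at least half the replicates too; inconclusive = mean and replicates disagree; tested in HMLE shEcad cells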;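 note: 0% = median of negative and 100% = median of positive control wells; the first replicate is given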
eIF4H inh = human eIF4H binding inhibitors, primary screen, translation initiation inhibitor project, biochemical, uHTS, fluorescence polarization. Eukaryotic translation initiation factor 4H (Homo sapiens), Q15056. eIF4H fluorescence polarization binding assay. inhibition, % at 35 µM. 0.94% of 290,000 active. AID 2012, 2009;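 active = 50% or more with normal probe brightness, or confirmed in later tests; inconclusive = above 50% with abnormal brightness, or retests that disagree; inactive = below 50% or failed in later tests; about a fifth of its hits are not listed in these tables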;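 note: calls also rest on retests at 20 µM and on dose response follow-up; 0% = protein and probe with vehicle and 100% = probe without protein; strong numbers were not always called active; many hits fall short of the cut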
eIF4H inh retest = recorded beside eIF4H inh, whose call it bears; inhibition, %; compound at 20 µM; confirmation average;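 mean of two retest wells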
PABP polyA inh retest = second read-out of PABP polyA inh, no call of its own (marks repeat the call); inhibition, %; compound at 20 µM; confirmation repeats;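 mean of two retest wells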
MT1-MMP act inh RFP = further read-out of MT1-MMP act inh, marked with its call; RFP signal change, %; measured here: RFP expression control read;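 0 = vehicle wells; hits needed this value within 50% of zero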
Numbers without * were called inactive; i = inactive; ? = inconclusive; / = no result given. Not all compounds are listed. The share of hits here may be higher or lower than overall.

SMILES | Rce1 inhib | MT1-MMP act inh | MT1-MMP act inh RFP | PABP polyA inh | UUG fidelity | HIV Env fusion | CSC inhib | eIF4H inh | others
CC(=O)Oc1ccc(C(=O)NC(C)CCc2ccccc2)cc1 (configuration not stated) | i | -2.2 | -6.6 | 4.6 | -21.0 | 1.4 | -5.1 | -13.4
O=C(NCc1cccnc1)c1ccc(CS(=O)(=O)c2ccc(Cl)cc2)o1 | i | 2.1 | -5.2 | 3.4 | -15.0 | / | 4.1 | -9.9
Cc1ccc(C(=O)CSc2nnc(CNc3ccc(F)cc3)o2)cc1 | i | -4.5 | -3.2 | -11.7 | / | -3.1 | -11.3 | -1.8
COc1ccc(S(=O)(=O)N2CCC(C(=O)N[C@@H](C)C(=O)NCc3ccccc3OC)CC2)cc1 | i | 1.7 | 0.7 | 4.8 | 5.2 | 4.8 | 12.2 | -4.9
COc1ccc(CCNc2nc(-c3cccc(NC(C)=O)c3)cs2)cc1OC | i | 6.1 | -5.1 | -2.1 | / | 15.6 | -3.0 | -7.0
COc1cc(CN(C)Cc2ccccc2)cc(OC)c1O | i | -1.3 | -3.0 | 4.9 | 0.0 | -24.3 | -1.9 | -0.9
C[C@H](CO)N1C[C@H](C)[C@@H](CN(C)C(=O)NC2CCCCC2)Oc2c(NC(=O)Cc3ccccc3)cccc2C1=O | / | -0.2 | -0.8 | / | -2.0 | -8.8 | 1.7 | /
COc1ccc(Oc2ncccc2NC(=O)c2cccc(C)c2C)cc1 | i | 1.4 | -2.2 | -4.0 | 0.9 | 1.6 | -1.2 | -3.1
O=C(Nc1nnc(Cc2c[nH]c3ccccc23)s1)c1ccc(Cl)cc1Cl | i | -14.6 | -5.0 | -5.5 | / | 0.5 | 45.2 | 0.3
N#CCCN(Cc1cccnc1)S(=O)(=O)c1ccc(S(=O)(=O)NC2CCCCC2)cc1 | i | -3.7 | -3.8 | -0.3 | -1.8 | / | -6.1 | 8.7
CCCN(C(=O)c1ccccc1Cc1ccccc1)C1CCS(=O)(=O)C1 (configuration not stated) | i | 1.0 | 0.6 | / | -12.2 | 5.2 | / | /
CC(C)CC(=O)NN(C)c1nc(-c2ccccc2)nnc1C(F)(F)F | i | 0.2 | -2.3 | -1.8 | -6.4 | 6.3 | -12.3 | 5.3
O=C(COC(=O)c1cccnc1Cl)Nc1cc(S(=O)(=O)N2CCCCCC2)ccc1Cl | / | 0.4 | -0.5 | / | -14.2 | 19.3 | / | /
CCOC(=O)C(=CNc1cc(C)nn1-c1ccc(C)cc1)C(=O)OCC | i | -8.9 | -12.2 | 5.6 | -45.9 | -10.6 | -1.0 | -10.3
O=C(O)c1occc1CSc1ccccc1 | i | -1.7 | 3.8 | -0.5 | -9.3 | -13.4 | -12.9 | -3.9
CCN(CC)CCCN1C(=O)C(O)=C(C(C)=O)C1c1cccc(OC)c1 (configuration not stated) | i | / | / | 16.6 | / | / | / | -5.3
CC1CC(C)CN(CCCNC(=O)c2nn(C)c3c2CS(=O)(=O)c2ccccc2-3)C1 (configuration not stated) | i | 0.2 | 2.0 | 2.5 | 0.5 | -6.5 | -12.8 | -3.0
COc1ccc(N2CCN(CCNC(=O)CCNS(=O)(=O)c3cccs3)CC2)cc1 | i | 1.6 | 2.5 | -11.9 | -6.2 | 4.7 | -12.3 | 3.5
CC(=O)N1CCN(C(=O)c2cccc(S(=O)(=O)Nc3ccc(C)cc3)c2)CC1 | i | 4.1 | 1.8 | 0.3 | -5.2 | / | -7.8 | 8.5
COC(=O)[C@@H]1C[C@@]2(O)[C@H](O)[C@H](O)[C@H](O)C[C@H]2N1Cc1ccccc1OS(=O)(=O)c1ccc(C)cc1 | i | 1.5 | 3.6 | 11.6 | -13.1 | 10.9 | 0.2 | 9.0
Cc1ccc(-c2noc(CCC(=O)NCCCN3CCN(c4cccc(Cl)c4)CC3)n2)cc1 | i | 6.0 | 1.0 | -3.7 | 2.9 | / | -6.2 | -6.2
CCOC(=O)N=S(=O)(Oc1ccc([N+](=O)[O-])cc1)c1ccc(Cl)cc1 (configuration not stated) | i | -1.5 | -4.5 | 13.2 | -2.3 | / | -16.3 | 2.5
CCOC(=O)C1CCCN(c2cc(=O)n(Cc3ccc(F)cc3)c(=O)[nH]2)C1 (configuration not stated) | i | -2.1 | -1.2 | 1.9 | -1.4 | -3.0 | -9.0 | -10.8
CNc1nc(N)c([N+](=O)[O-])c(Nc2cccc(Cl)c2)n1 | i | -2.7 | -3.2 | -5.1 | -15.4 | -42.0 | -14.9 | 5.5
CC(C#N)Sc1nnc(Nc2ccccc2)s1 (configuration not stated) | i | 4.6 | 2.9 | -9.3 | -17.4 | -14.7 | -8.3 | -9.0
The results go on:
SMILES | Rce1 inhib | MT1-MMP act inh | MT1-MMP act inh RFP | PABP polyA inh | UUG fidelity | HIV Env fusion | CSC inhib | eIF4H inh | others
CC(=O)c1cccc(NC(=O)CN(C)S(=O)(=O)c2ccc3c(c2)CCC(=O)N3)c1 | i | 1.9 | 2.3 | -2.0 | -12.4 | / | / | -3.1
COC(=O)c1cc2c(=O)c3ccccc3oc2nc1/C=C/N(C)C | i | -50.4 | 11.7 | ? | 0.2 | -20.2 | -2.5 | ?
CC(C)(C)c1cc(C(=O)NCc2ccccc2)ccn1 | i | 0.4 | -5.4 | 1.2 | -9.4 | 45.4 | -6.7 | 5.1
NC(=O)COC(=O)c1cc(-c2ccco2)nc2ccccc12 | i | -4.0 | 4.5 | ? | -18.4 | -27.1 | -6.2 | ?
COc1ccccc1NC(=O)CCc1c(C)nc2c(-c3ccc(F)cc3)c(C)nn2c1C | i | 14.1 | -1.5 | -9.0 | -8.6 | ? | -7.8 | -3.8
CCOC(=O)c1c(-c2ccccc2)oc2cc(CN(C)C)c(O)c(CN(C)C)c12 | i | -117.0 | -5.0 | / | -11.6 | / | 93.8* | /
N#Cc1cc([N+](=O)[O-])ccc1NC(=O)COC(=O)CCC1CCCCC1 | i | / | / | 0.1 | / | 8.3 | -2.7 | 0.0
O=S(=O)(Nc1ccc(-c2ccc3nncn3n2)cc1)c1ccccc1Cl | i | -2.6 | -1.4 | / | / | -13.8 | / | /
CCC1CCCCN1C(=O)CSc1nnc(-c2ccc3c(c2)OCCO3)o1 (configuration not stated) | i | 20.5 | -0.7 | 1.5 | -22.1 | / | 3.4 | -6.6
COc1ccc(C)cc1S(=O)(=O)N1CCN(S(=O)(=O)c2cc(C)ccc2OC)CC1 | i | -3.1 | -4.5 | -8.2 | 15.2 | 29.8 | 0.9 | -3.9
COc1ccc(OC)c(S(=O)(=O)Nc2ccc3c(c2)N(C(C)=O)CCC3)c1 | i | 2.1 | -3.8 | / | -10.7 | 12.8 | / | /
Cc1ccccc1C(=O)NC1CCN(Cc2ccccc2)CC1 | i | 3.3 | 5.6 | -1.9 | / | -13.0 | / | 2.2
COc1ccc(-c2[nH]ncc2CN2CCN(C(=O)c3ccco3)CC2)cc1F | i | 4.9 | 1.0 | -2.0 | -14.9 | 10.8 | -2.4 | 8.2
C[C@@H]1CN([C@@H](C)CO)C(=O)c2cc(Br)cnc2O[C@@H]1CN(C)C(=O)CN(C)C | / | 3.1 | 6.3 | / | -3.7 | 17.4 | / | /
O=C(CSc1ccccc1)Nc1ccc(Cl)c(S(=O)(=O)N2CCOCC2)c1 | / | -2.2 | -13.1 | / | -18.7 | 4.4 | 29.8 | /
COc1cccc(NC(=O)Nc2ccccc2C(N)=O)c1 | i | -2.6 | 2.2 | -4.4 | / | -7.3 | 4.9 | -6.7
O=C1c2cccnc2C(=O)N1Cc1ccc(S(=O)(=O)N2CCOc3ccccc32)cc1 | i | -5.2 | 1.0 | 6.2 | -4.6 | 4.2 | -14.4 | -3.6
CCOCCCNC(=O)C(c1ccc(C)cc1)N1CCOCC1 (configuration not stated) | i | -4.1 | 3.5 | 8.5 | -12.3 | -15.1 | -0.4 | -8.6
O=C(c1cccc(S(=O)(=O)N2CCOCC2)c1)N(Cc1ccc(F)cc1)Cc1ccco1 | i | -0.7 | -1.4 | 5.5 | / | 19.4 | -5.2 | 0.4
CCOP(=O)(CC(C(C)=O)C(O)c1ccccc1)OCC (configuration not stated) | i | -4.4 | 0.0 | -6.3 | -16.3 | 8.2 | -9.9 | 0.5
COC(=O)c1ccc(CSc2nnc(NC(C)C)s2)o1 | i | 2.0 | 3.4 | 5.8 | / | 2.7 | -5.9 | 7.4
Cc1ccc(S(=O)(=O)N2CCC(C(=O)OCC(=O)NCCc3ccccc3)CC2)cc1C | i | 1.9 | 0.9 | / | / | -6.7 | 5.1 | /
O=C(COC(=O)COc1ccc(Br)cc1)NCC1CCCO1 (configuration not stated) | / | 2.9 | 0.2 | / | -18.9 | 18.4 | 6.6 | /
O=C(CNC(=O)c1cccs1)NCCc1ccco1 | / | 1.9 | 3.4 | / | -17.4 | -4.1 | -4.8 | /
CCOC(=O)c1c(N)sc(C(=O)N2CCCC2)c1C | i | -1.1 | 1.8 | -0.4 | / | / | -7.5 | -5.6
Later entries
SMILES | Rce1 inhib | MT1-MMP act inh | MT1-MMP act inh RFP | PABP polyA inh | UUG fidelity | HIV Env fusion | CSC inhib | eIF4H inh | others
Cc1nc(N2CCCCCC2)c2ccccc2n1 | i | 3.5 | -6.4 | -1.2 | -7.0 | -5.8 | -9.0 | -10.5
S=c1[nH]nc(-c2ccco2)n1/N=C/C=C/c1ccco1 | i | -3.6 | 3.2 | -1.2 | / | -3.2 | -28.2 | 91.5 | eIF4H inh retest=-6.0;PABP polyA inh retest=11.9
Cc1cc(C)c2c(=O)c(/C=C3\NC(=S)NC3=O)coc2c1 | i | / | / | 1.3 | / | -3.3 | 10.5 | 2.4
CCC(=O)c1ccc(OCC(=O)OCC(=O)NC2CCCC2)cc1 | i | 1.8 | 2.8 | / | / | / | -6.9 | /
Cc1nn(C(C)C(=O)N2CCCCC2)c(=O)c2c1sc1ccccc12 (configuration not stated) | i | -2.5 | 1.9 | -0.7 | -6.8 | / | -6.5 | -4.3
COC(=O)c1ccccc1NC(=O)c1cc(-c2ccc(C)cc2)on1 | i | -3.9 | 0.3 | 4.0 | -9.4 | / | 1.0 | 6.1
CC(=O)c1ccc(NC(=O)CCCCCn2nnc3ccccc3c2=O)cc1 | i | -4.4 | -3.7 | -6.2 | -5.3 | 1.2 | -0.3 | -10.3
CN(C)CCCN(C(=O)c1ccc(S(=O)(=O)N2CCCCCC2)cc1)c1nc2ccc(F)cc2s1 | i | 0.6 | 2.8 | 7.7 | -6.3 | -30.5 | -6.8 | -9.1
Cc1nnc(NC(=O)CSc2nnc(CC(=O)Nc3ccccc3F)n2C)s1 | / | -0.8 | 2.8 | -13.5 | -19.1 | -2.3 | -14.7 | -5.7

By substructure: those above with bromine
SMILES | Rce1 inhib | MT1-MMP act inh | MT1-MMP act inh RFP | PABP polyA inh | UUG fidelity | HIV Env fusion | CSC inhib | eIF4H inh | others
C[C@@H]1CN([C@@H](C)CO)C(=O)c2cc(Br)cnc2O[C@@H]1CN(C)C(=O)CN(C)C | / | 3.1 | 6.3 | / | -3.7 | 17.4 | / | /
O=C(COC(=O)COc1ccc(Br)cc1)NCC1CCCO1 (configuration not stated) | / | 2.9 | 0.2 | / | -18.9 | 18.4 | 6.6 | /
